# TRPV1 potentiator: potentiators of human vanilloid receptor 1 (TRPV1). Q8NER1. TRPV1-expressing cells, Fluo-8 calcium influx, capsaicin EC20 potentiation; host cell line not named in the record; control for the full effect not named in the record. potentiation, % at 8.33 µM. actives 0.02% (n = 320,000). AID 540277; active means potentiation above 80%; inconclusive means 30% to 80%; inactive means below 30%; also: 0% is about no effect
# Target sequence (Q8NER1 whole entry, looked up): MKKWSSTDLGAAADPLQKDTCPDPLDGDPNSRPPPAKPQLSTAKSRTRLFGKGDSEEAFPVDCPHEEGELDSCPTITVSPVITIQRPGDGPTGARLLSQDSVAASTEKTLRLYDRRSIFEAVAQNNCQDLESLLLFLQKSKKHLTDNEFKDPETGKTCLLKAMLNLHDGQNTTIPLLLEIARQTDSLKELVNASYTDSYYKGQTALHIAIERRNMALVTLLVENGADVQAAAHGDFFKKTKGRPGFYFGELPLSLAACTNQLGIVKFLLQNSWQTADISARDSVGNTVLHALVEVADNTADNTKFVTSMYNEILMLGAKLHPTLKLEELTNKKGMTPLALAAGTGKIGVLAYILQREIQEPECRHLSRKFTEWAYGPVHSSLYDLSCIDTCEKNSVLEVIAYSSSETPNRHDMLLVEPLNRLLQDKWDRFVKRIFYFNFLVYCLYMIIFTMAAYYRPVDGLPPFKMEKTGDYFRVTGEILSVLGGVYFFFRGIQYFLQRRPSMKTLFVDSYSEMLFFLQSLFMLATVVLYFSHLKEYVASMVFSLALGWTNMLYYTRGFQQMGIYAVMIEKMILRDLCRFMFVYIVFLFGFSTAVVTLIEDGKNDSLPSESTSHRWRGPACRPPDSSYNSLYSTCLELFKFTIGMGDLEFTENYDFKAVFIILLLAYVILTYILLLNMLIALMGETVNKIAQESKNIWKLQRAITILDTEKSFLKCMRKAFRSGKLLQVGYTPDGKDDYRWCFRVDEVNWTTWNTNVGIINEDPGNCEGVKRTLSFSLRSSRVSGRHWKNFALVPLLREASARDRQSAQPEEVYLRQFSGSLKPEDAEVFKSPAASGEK
#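 Fluo-8 calcium influx in TRPV1-expressing cells, kinetic read (ex 480/em 520 nm). Compound added and read 3 min for agonist activity, followed by capsaicin at EC20 final and 2 min further read for enhancement.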
# gsp ag: activates gsp, the McCune-Albright syndrome mutation; gsp mutant cells, cAMP HTRF, 30 min; control for the full effect not named in the record; Potency, µM (doses to about 76.9 µM), for inactives: at the top dose activation (cAMP increase), most hits filed as activators; actives 0.13% (n = 340,000); AID 624287; active = well fitted activation curve with a large enough effect; inconclusive = small, poorly fitted or top-dose-only effect, or another doubt; inactive = no such curve, though single readings can be large or run the other way; cell line not stated here;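 also: phosphodiesterase inhibitor Ro 20-1724 added with compounds to block cAMP breakdown; potency is read from the fitted curve at half-maximal effect; nearly all actives have a fitted effect of over 60% in size; about a fifth of the inactives were tested at one dose only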
#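 Cells in DMEM/10% FBS with G418 were pretreated with compounds in DMSO plus […] (300 uM stock) for 30 min at 37C. cAMP was measured by HTRF (cAMP-d2 plus anti-cAMP antibody-K) after 30 min at room temperature.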
# Sfp inh: blocks B. subtilis Sfp PPTase activity | actives 3.5% (n = 310,000) | Potency, µM, for the others: max response, negative = inhibition, most hits filed as inhibitors | Biochemical Sfp PPTase activity, qHTS; active = well fitted inhibition curve with a large enough effect; inconclusive = small, poorly fitted or top-dose-only effect, or another doubt; inactive = no such curve, though single readings can be large or run the other way;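 also: the enzyme is Sfp with the accession as filed and its product quenches rhodamine fluorescence; potency is read from the fitted curve at half-maximal effect; 0% = enzyme reaction without inhibitor and -100% = no enzyme wells; top concentration of the series not given in the record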
#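 Compounds were incubated with enzyme (final 15 nM) for 15 min at room temperature before substrate addition started the reaction. Fluorescence at 525 nm excitation, 598 nm emission was recorded immediately and after 30 minutes.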
# gsp antag: gsp mutant antagonism; Potency, µM (titrated, usually from 76.9 µM), for inactives: top-dose activity change, negative = inhibition, actives largely listed as inhibitors; actives 0.4% (n = 340,000); gsp-mutant cells, cAMP HTRF, 30 min; control for the full effect not named in the record; active = falling curve of any shape with a large fitted effect; inconclusive = falling curve, mostly with a smaller effect; inactive = flat or rising curve; cell line not stated here;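 also: intracellular cAMP measured with PDE inhibitor Ro 20-1724 present during compound exposure; potency is read from the fitted curve at half-maximal effect; % is scaled to controls: 0 for no effect and ±100 for the full control effect; nearly all actives have a fitted effect of over 65% in size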
#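 G418-selected cells were plated in DMEM/10% FBS for 16-24 h at 37C, then treated with compounds plus the PDE inhibitor […] (300 uM solution added) for 30 min at 37C. Intracellular cAMP was measured by HTRF after 30 min lysis at room temperature.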
# Menin-MLL FL inh: inhibitors of human menin-MLL interaction, wild-type MLL peptide; FP activity change, % at 61.4 µM; 290,000 tested, under 10 active; Fluorescence polarization, fluorescein-MLL peptide displacement from menin; inconclusive = falling polarisation curve, or a change in total fluorescence; inactive = total fluorescence flat and polarisation flat or rising; no compound was filed as active; the % refers to the polarisation; negative = inhibition;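 also: % of control where 0% means no effect; inhibitors lower the polarisation; unlabelled MLL peptide was the positive control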
# CtBP-E1A inh: inhibitors of CtBP/E1A interaction. actives 0.49% (n = 340,000). activity change, % (concentration not given with the values). AlphaScreen GST-E1A/His-CtBP binding, 1536-well; active compounds read low; control for the full effect not named in the record; in the data active means activity change below about -65%; inconclusive means about -30% to -65%; inactive means above about -30%; also: % is scaled to controls: 0 for no effect and ±100 for the full control effect
#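 Protein mix (5X: 125 nM each GST-E1A, His-CtBP) was incubated with pinned compound 2 h at 37 deg C in dark, in 50 mM Tris pH 8.0 buffer with 300 mM NaCl. Glutathione donor and nickel acceptor beads followed; AlphaScreen signal read after 1 h.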
# ClpP mod: qHTS Assay for Activators of ClpP; purified B. subtilis ClpP, FRET peptide cleavage, 20 min; ATP-dependent Clp protease proteolytic subunit (Bacillus subtilis (strain 168)), P80244; actives 1.9% (n = 340,000); Potency, µM (titrated, usually from 57.5 µM), without a hit: at the top dose activity change, negative = active; active = well fitted falling curve with a large enough effect; inconclusive = small, poorly fitted or top-dose-only effect; inactive = no such curve, though single readings can be large or run the other way; also: potency is read from the fitted curve at half-maximal effect; the source files actives as falling curves though it sought activators and does not explain the sign; nearly all actives have a fitted effect of over 65% in size; many hits overshoot -100%
# Target sequence (P80244 whole entry, looked up): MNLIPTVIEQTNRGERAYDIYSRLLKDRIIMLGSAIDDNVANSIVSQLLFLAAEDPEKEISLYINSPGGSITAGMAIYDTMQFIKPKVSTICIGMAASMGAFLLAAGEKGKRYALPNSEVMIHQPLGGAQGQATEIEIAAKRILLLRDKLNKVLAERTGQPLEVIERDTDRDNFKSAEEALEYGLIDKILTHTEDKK
#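 Buffer: 100 mM Tris/HCl pH8, 100 mM KCl, 0.05% low protease BSA, 2.5% glycerol, 0.01% Tween-20. ClpP 10 microg/mL final; 20 min RT; delta FRET normalized to ADEP and DMSO controls.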
# The depositor's hits bear a star; ? = inconclusive; / = no result given; [ ] = another dose, or the depositor's remark.
entry	canonical_smiles	CtBP-E1A inh	Sfp inh	TRPV1 potentiator	gsp ag	Menin-MLL FL inh	gsp antag	ClpP mod
1	Cc1ccc(-c2nnc(N3CCC(C)CC3)c3ccccc23)cc1	/	-20.2%	-1.5	-60.6%[inhibitor]	-1.2	25.1µM*	0.4%
2	Cc1ccc(S(=O)(=O)Nc2cccc(C(=O)NCCN3CCOCC3)c2)cc1F	-16.0	/	-8.0	27.3%	/	7.0%	-5.4%
3	O=C(NC1CCCC1)c1cccc(S(=O)(=O)N2CCOCC2)c1	-2.9	/	-7.6	-0.7%	/	3.8%	1.7%
4	COc1ccc(C(=O)COC(=O)c2ccc(OC)c(OC)c2)cc1OC	8.0	16.8%	1.2	?	0.3	4.7%	-1.0%
5	O=C(O)CCN=C1CCCc2ccccc2N1	-6.5	4.7%	5.2	-5.1%	-2.1	3.3%	-1.1%
6	CCOc1ccc2nc(N(CCN(CC)CC)C(=O)c3cccc([N+](=O)[O-])c3)sc2c1	-5.0	?	2.0	23.7%	-4.7	8.7%	/
7	COc1ccc(C(CNC(=O)c2oc3ccc(F)cc3c2C)N2CCCCC2)cc1 (centres undefined)	-13.8	4.7%	-0.8	-25.5%	0.1	-2.2%	-1.2%
8	CC12CCC(C(=O)NCc3ccccc3)(OC1=O)C2(C)C (centres undefined)	-0.8	10.2%	-2.8	-2.7%	1.5	0.9%	-4.4%
9	Cc1ccc(-c2cnn3c(N4CCOCC4)cc(C)nc23)cc1	/	4.4%	-3.9	5.0%	6.4	-4.9%	4.0%
10	CCc1nc(SCC(=O)N2CCc3ccccc32)c2oc3ccccc3c2n1	/	/	/	-11.0%	/	6.7%	1.6%

# The last 2 records of the part above are carried over, then new ones follow:
entry	canonical_smiles	CtBP-E1A inh	Sfp inh	TRPV1 potentiator	gsp ag	Menin-MLL FL inh	gsp antag	ClpP mod
9	Cc1ccc(-c2cnn3c(N4CCOCC4)cc(C)nc23)cc1	/	4.4%	-3.9	5.0%	6.4	-4.9%	4.0%
10	CCc1nc(SCC(=O)N2CCc3ccccc32)c2oc3ccccc3c2n1	/	/	/	-11.0%	/	6.7%	1.6%
11	C#CCOCCOCCOCCNc1nc(N2CCOCC2)nc(N2CCN(C(=O)[C@H](CCCCN)n3cc([C@@H](N)CC(C)C)nn3)CC2)n1	-12.4	24.7%	-11.8	-4.5%	-6.6	8.1%	-3.1%
12	CCC(Br)C(=O)Nc1ccc(OC)cc1 (centres undefined)	6.5	-4.6%	1.6	-13.0%	-0.4	11.6%	/
13	CCOc1ccc(C2Oc3nc(SC)nnc3-c3ccccc3N2C(C)=O)cc1OC (centres undefined)	0.0	-2.9%	14.8	-25.5%	-0.5	8.0%	0.7%
14	Cc1ccc(N2C(=O)CC2(C#N)c2ccc(OCc3ccccc3)cc2)cc1 (centres undefined)	-0.4	16.7%	2.4	15.9%	0.6	4.8%	-5.0%
15	Nc1nc(Cl)cc(=O)n1Cc1ccc(Cl)cc1	/	/	/	-9.9%	/	-1.8%	1.1%
16	CC(C[N+](C)(C)C)OC(=O)C1(c2ccccc2)CCCC1 (centres undefined)	/	4.8%	1.4	-23.0%	-1.4	11.3%	1.6%
17	O=C(COC(=O)COc1ccc(Nc2ccccc2)cc1)NCc1ccco1	2.2	-14.3%	-1.7	6.9%	1.4	-20.8%	-1.1%
18	COc1cc2c(cc1OC)CN(C(=O)c1cccc([N+](=O)[O-])c1)CC2	0.2	17.9%	-4.1	-1.3%[15.4 µM]	5.3	-21.3%	0.4%
19	Cc1cc(C)c(NC(=O)CN2CCCCCC2)c(C)c1	-0.8	-2.4%	7.7	2.7%	-5.8	11.3%	-1.0%
20	CCOC(=O)c1cnc2ccc(C)cc2c1OCc1cc(F)cc(F)c1	5.6	0.5%	14.4	-48.9%[inhibitor]	0.1	-16.1%	-2.0%
21	CCOC(=O)c1cn(-c2ccccc2CO)c2c(F)c(F)c(F)cc2c1=O	4.4	0.8%	-15.3	-12.2%	0.0	-6.0%	3.0%
22	COc1ccc(Br)cc1S(=O)(=O)Nc1ccc(Cl)cn1	-1.1	18.5%	-5.2	-1.8%[15.4 µM]	2.3	-6.3%	-5.2%
23	COc1ccccc1-c1cn(-c2ccccc2)c(=S)[nH]1	0.0	?	-14.2	-34.2%[inhibitor]	-22.3	-15.8%	?
24	CN1CCN(C(=O)/C(=C\c2cccs2)NC(=O)c2ccco2)CC1	-1.6	12.9%	-0.3	?	-1.1	5.1%	-0.7%
25	CCCCC(CCCC)=N/N=C/c1c(O)n(CC)c2cc(C3=NNC(=O)CC3)ccc12	-6.6	-7.1%	6.5	2.0%	16.8	-3.9%[15.4 µM]	0.4%
26	CN(C)S(=O)(=O)n1cc(/C=C(\NC(=O)c2ccccc2F)C(=O)NCCCN2CCOCC2)c2ccccc21	-1.6	-1.9%	-10.3	-20.2%	-4.5	-1.5%	-1.0%
27	CC(=O)Nc1nc(-c2ccc(Cl)cc2)nc(C)c1C(C)=O	-19.9	-26.7%	-6.6	9.0%	7.0	-6.5%	0.7%
28	Cn1c(N)c(C(=O)COC(=O)CNC(=O)c2ccccc2F)c(=O)n(C)c1=O	-12.9	/	/	5.0%[15.4 µM]	/	2.8%	0.8%
29	Cc1ccnc(NS(=O)(=O)c2ccc(NS(=O)(=O)c3ccccc3)cc2)n1	4.9	-1.3%	10.2	-21.4%	0.4	-1.4%	2.1%
30	O=S(=O)(c1cccc2nsnc12)N1CCCC1	-0.5	14.9%	-20.2	11.0%	7.1	3.9%	-2.6%
31	CCOc1ccc(N(CC(=O)N2CCOCC2)S(=O)(=O)c2ccc(F)cc2)cc1	3.9	15.7%	-27.1	-16.7%	3.8	10.6%	-13.3%
32	CC(C)Cc1nnc(NC(=O)CCNC(=O)c2ccco2)s1	-1.9	13.6%	22.2	-11.1%[15.4 µM]	-7.8	4.8%	/
33	COc1ccc2c(=O)c3c(=O)n(Cc4ccco4)c(-c4ccco4)nc3oc2c1	?	?	-0.2	22.3%	14.8	10.8%	-8.5%
34	COC(=O)c1sc(SC)c(S(=O)(=O)C(C)C)c1N/N=C(\C#N)S(=O)(=O)c1ccccn1	2.8	-0.6%	18.5	7.5%[15.4 µM]	1.8	0.1%	-0.3%
35	CCOC(=O)N1CCN(C(=O)c2ccc(C)c(S(=O)(=O)Nc3cccc(C)c3C)c2)CC1	-16.4	5.3%	3.2	6.9%	-1.4	?	-1.9%
36	NC(=O)c1ccc(-c2ccc(Br)cc2)o1	-7.1	-11.2%	-16.2	?	-0.1	18.7%	28.2µM*
37	O=C(c1ccccc1)N1CCN(C(=O)c2ccccc2)c2ccccc21	0.0	/	/	-2.2%[15.4 µM]	/	?	-3.5%
38	Cc1ccc(CNC(=O)CCC2CCCN(Cc3c(C)nn(C(C)C)c3C)C2)o1 (centres undefined)	/	23.9%	-4.4	-23.6%	-8.8	5.3%	-0.1%
39	C=CCOc1c2ccc(C(=O)NCCc3ccc(C)cc3)cc2nn1C	4.7	16.0%	8.9	-1.1%	0.9	2.0%	?
40	O=C(Cc1ccc(Br)cc1)NC1CCCc2ccccc21 (centres undefined)	14.7	12.7%	-15.9	22.0%	1.5	-14.5%	/
41	COc1ccccc1N(C)S(=O)(=O)c1ccc(C(=O)NC2CCCCCC2)cc1	0.5	3.3%	-9.5	4.4%[15.4 µM]	4.6	-31.2%	/
42	N#CC1=C2N=C(N)c3c(sc4c3CCCCC4)N2C2=C(C(=O)CCC2)C1c1ccccc1 (centres undefined)	?	-24.6%	9.9	-0.4%	5.0	-2.6%	-0.6%
43	COc1ccc(CCNC(=O)C/C(C)=N/NC(=O)c2ccc(Cl)cc2Cl)cc1OC	3.2	10.6%	-8.3	-41.7%[inhibitor]	0.5	7.6%	1.8%
44	COc1ccccc1/C=C1\SC(=S)N(CCC(=O)Nc2nnc(C)s2)C1=O	-21.8	-19.6%	2.4	8.3%	-0.3	-1.0%	/
45	Cc1cc(=O)oc2cc(OCCc3ccccc3)ccc12	22.5	-1.5%	-4.6	-8.9%	-1.5	-0.9%	3.2%
46	CCOC(=O)c1c(C)[nH]c(C)c1C(=O)CSc1nc2ccccc2c(=O)n1-c1ccc(CC)cc1	-12.4	7.2%	-2.3	-44.8%[inhibitor]	4.7	-12.4%	-0.9%
47	CC(=O)Nc1ccc(NC(=O)C(C)OC(=O)C2CC3C=CC2C3)cc1 (centres undefined)	6.2	7.8%	-4.3	-26.9%	-0.9	-0.2%	-1.9%
48	CSc1cccc(NC(=O)c2ccc(CN3CCc4ccccc4C3)cc2)c1	-20.4	15.9%	4.5	17.0%[15.4 µM]	-0.3	-5.2%	/

# Of the compounds above, 8 have a furan ring, fused or not.
entry	canonical_smiles	CtBP-E1A inh	Sfp inh	TRPV1 potentiator	gsp ag	Menin-MLL FL inh	gsp antag	ClpP mod
7	COc1ccc(C(CNC(=O)c2oc3ccc(F)cc3c2C)N2CCCCC2)cc1 (centres undefined)	-13.8	4.7%	-0.8	-25.5%	0.1	-2.2%	-1.2%
10	CCc1nc(SCC(=O)N2CCc3ccccc32)c2oc3ccccc3c2n1	/	/	/	-11.0%	/	6.7%	1.6%
17	O=C(COC(=O)COc1ccc(Nc2ccccc2)cc1)NCc1ccco1	2.2	-14.3%	-1.7	6.9%	1.4	-20.8%	-1.1%
24	CN1CCN(C(=O)/C(=C\c2cccs2)NC(=O)c2ccco2)CC1	-1.6	12.9%	-0.3	?	-1.1	5.1%	-0.7%
32	CC(C)Cc1nnc(NC(=O)CCNC(=O)c2ccco2)s1	-1.9	13.6%	22.2	-11.1%[15.4 µM]	-7.8	4.8%	/
33	COc1ccc2c(=O)c3c(=O)n(Cc4ccco4)c(-c4ccco4)nc3oc2c1	?	?	-0.2	22.3%	14.8	10.8%	-8.5%
36	NC(=O)c1ccc(-c2ccc(Br)cc2)o1	-7.1	-11.2%	-16.2	?	-0.1	18.7%	28.2µM*
38	Cc1ccc(CNC(=O)CCC2CCCN(Cc3c(C)nn(C(C)C)c3C)C2)o1 (centres undefined)	/	23.9%	-4.4	-23.6%	-8.8	5.3%	-0.1%

# Rows are unselected. Share with any hit: about 5.3%.
